From PubChem
Mtb bLac sens: beta-lactam sensitization of Mtb H37Rv, H37Rv | M. tuberculosis H37Rv growth with meropenem, percent inhibition; hits of this screen are not shown here | 0.27% of 330,000 active | inhibition, % at 25 µM;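 active = about 74% or more and at least 40 points above the plate without the antibiotic, then above 30% in a dose series; inconclusive = first-round hits that could not be retested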;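 also: growth measured after seven days incubation then overnight dye step; 0% = bacteria only wells and 100% = bacteria with antibiotic; twin plates without the antibiotic show which effects depend on it; some results filed as inactive read as strong as hits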
YopH PTP inh: YopH tyrosine phosphatase inhibitors, primary screen, biochemical, fluorescence Ex485/Em525; YopH tyrosine phosphatase [Yersinia enterocolitica]; inhibition, %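 (about 10 µM by stock and volumes)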; 0.16% of 140,000 active;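 active = inhibition of 50% or more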;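 also: controls were vehicle for no effect and minimum signal wells for full effect; inactives centre near -20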
Mtb growth: M. tuberculosis H37Rv growth inhibitors, H37Rv strain (AID 1626); M. tuberculosis H37Rv growth inhibition; higher % means a stronger effect; one-dose inhibition, % at 10 µM; IC50 in µM for titrated hits; 0.95% of 220,000 active;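 active = confirmed in a dose series; inconclusive = inhibition above 80% but not taken into the dose series; inactive = below 80% or under 30% at every dose of the series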;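 also: bacteria incubated seven days before Alamar blue readout; 0% = bacteria only wells and 100% = bacteria with antibiotic wells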
Arbovirus inh: antivirals against arbovirus infection, primary screen, cell-based, full library, 10K replicate subset; arbovirus infection cell-based antiviral screen; inhibition, % at 10 µM; 0.37% of 200,000 active; AID 1251, 2008;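 active = inhibition from about 30%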;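 also: bluetongue infection of BSR cells; cell survival read as ATP light after 72 h; 0% = infected wells without compound and 100% = uninfected wells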
RecA splice inh: Mtb RecA intein splicing inhibitors, primary screen, biochemical, fluorescence, HTS. inhibition, %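 (about 9 µM by stock and volumes)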. cell-free RecA intein splicing. 0.75% of 290,000 active. AID 2221, 2009; in the data active = inhibition above about 30%; inconclusive = no clear call, values can overlap the other calls;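 also: 0% = vehicle wells and 100% = reference inhibitor control wells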
Target sequence (P9WHJ3 whole entry, looked up, canonical isoform): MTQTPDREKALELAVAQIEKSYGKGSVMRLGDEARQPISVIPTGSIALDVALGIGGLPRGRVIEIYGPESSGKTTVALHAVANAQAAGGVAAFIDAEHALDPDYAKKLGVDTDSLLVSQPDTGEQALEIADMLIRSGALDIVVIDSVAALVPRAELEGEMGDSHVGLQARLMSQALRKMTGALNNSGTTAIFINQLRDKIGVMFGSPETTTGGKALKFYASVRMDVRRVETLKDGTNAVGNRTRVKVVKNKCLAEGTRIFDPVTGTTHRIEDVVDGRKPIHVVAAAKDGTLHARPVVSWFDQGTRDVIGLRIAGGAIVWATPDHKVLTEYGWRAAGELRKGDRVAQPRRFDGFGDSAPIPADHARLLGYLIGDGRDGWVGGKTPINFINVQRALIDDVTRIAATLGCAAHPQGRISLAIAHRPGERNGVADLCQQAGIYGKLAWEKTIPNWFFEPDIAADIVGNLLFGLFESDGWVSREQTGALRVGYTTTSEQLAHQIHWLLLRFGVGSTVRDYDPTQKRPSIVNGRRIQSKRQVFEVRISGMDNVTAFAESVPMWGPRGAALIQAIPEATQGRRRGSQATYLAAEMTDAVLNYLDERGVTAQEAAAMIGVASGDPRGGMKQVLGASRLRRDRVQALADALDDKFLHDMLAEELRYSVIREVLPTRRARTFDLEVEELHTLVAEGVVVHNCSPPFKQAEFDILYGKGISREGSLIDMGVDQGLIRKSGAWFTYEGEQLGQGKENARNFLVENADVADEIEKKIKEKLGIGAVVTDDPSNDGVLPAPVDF
Arbovirus inh repeat: further read-out of Arbovirus inh, marked with its call; inhibition, %; measured here: 10K subset replicate screen; many hits read low in the repeat;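 first of two repeat runs on a subset; 0% = infected and 100% = uninfected wells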
Starred values were filed as active, the others as inactive; ? = inconclusive; . = not tested or not shown; & = joins results of further samples.

The first 6 entries, ahead of the listing:
SMILES	Mtb bLac sens	YopH PTP inh	Mtb growth	Arbovirus inh	RecA splice inh	others
Cc1nc(-c2cccc(NC(=O)Cc3ccccc3)c2)cs1	-8	.	8%	-5	3.8
N#Cc1cn(CC(=O)O)c2ccccc12	2	-16	.	3	-0.2
COc1ccc(NC(=O)CCCCn2c(=O)[nH]c3ccccc3c2=O)cc1	-4	3	-9%	-2	-1.2
COc1ccc(CCNC(=O)C2CCCN(C(=O)c3ccc(Cl)cc3)C2)cc1 (centres undefined)	-3	.	.	.	1.6
CCOC(=O)NC(=O)CSc1ccc2ccccc2n1	1	.	3%	0	-3.9
CN(C)S(=O)(=O)c1cccc(NC(=O)CN2C(=O)C3C4C=CC(C4)C3C2=O)c1 (centres undefined)	-1	-20	-11%	1	-0.5

Main list, repeating the preview:
SMILES	Mtb bLac sens	YopH PTP inh	Mtb growth	Arbovirus inh	RecA splice inh	others
Cc1nc(-c2cccc(NC(=O)Cc3ccccc3)c2)cs1	-8	.	8%	-5	3.8
N#Cc1cn(CC(=O)O)c2ccccc12	2	-16	.	3	-0.2
COc1ccc(NC(=O)CCCCn2c(=O)[nH]c3ccccc3c2=O)cc1	-4	3	-9%	-2	-1.2
COc1ccc(CCNC(=O)C2CCCN(C(=O)c3ccc(Cl)cc3)C2)cc1 (centres undefined)	-3	.	.	.	1.6
CCOC(=O)NC(=O)CSc1ccc2ccccc2n1	1	.	3%	0	-3.9
CN(C)S(=O)(=O)c1cccc(NC(=O)CN2C(=O)C3C4C=CC(C4)C3C2=O)c1 (centres undefined)	-1	-20	-11%	1	-0.5
O=C(CSc1nc(O)c(C2CCCCC2)c(=O)[nH]1)Nc1ccc(F)cc1	1	.	.	.	2.0
Cc1cccnc1NC(=O)c1ccc2c(c1)NC(=O)C(C)S2 (centres undefined)	-7	.	.	.	-5.0
COc1ccc(C(=O)Nc2ccc3ccccc3n2)c(OC)c1OC	97	.	.	.	2.1
O=C(O)COc1ccccc1Cc1ccccc1	6	-54	-10%	9	-3.2
CCN(CC)CCCC(C)NC(=O)c1cc(=O)c2ccccc2o1 (centres undefined)	-15	.	2%	3	4.8
Cc1ccc(CCNS(=O)(=O)c2cnc[nH]2)cc1	2	-9	8%	3	-10
CCC(C)n1cnc2c(=O)oc3ccccc3c21 (centres undefined)	10	0	0%	7	-5.9
CCN(C(=O)C1CSC2(C)CCC(=O)N12)c1nc2c(C)cccc2s1 (centres undefined)	3	.	.	.	0.7
CCNC(=O)COC(=O)c1cc(S(=O)(=O)N2CCCc3ccccc32)ccc1Cl	-2	.	-1%	.	-1.9
CCCN(CCC)c1nc(Cl)nc(NCc2ccco2)n1	5	-24	0%	-6	1.7
CNC(=S)N(CCc1c(C)[nH]c2ccc(C)cc12)Cc1cccnc1	-1	.	.	.	1.4
COc1ccc(NC(=O)N2CCN(C(=O)Nc3ccc(OC)cc3)CC2)cc1	-8	.	-4%	.	-1.9
CC1Oc2cc3c(-c4c(O)cc(O)c5c(O)c6c(cc45)OC(C)C(C)C6=O)c(O)cc(O)c3c(O)c2C(=O)C1C (centres undefined)	6	.	0%&-1%	.	87*
O=C(CSC(=S)N1CCOCC1)Nc1ccc(S(=O)(=O)Nc2ncccn2)cc1	2	.	.	.	-2.4
CC(C)(C)NC(=O)CSc1nnc(Cc2ccccc2)n1CC1CCCO1 (centres undefined)	-1	.	-5%	1	3.8
CCOC(=O)C(C)NC(=O)CCc1nnc2ccc(N3CCC(C)CC3)nn12 (centres undefined)	4	.	.	.	-0.4
CCOC(=O)CCC(NC(=O)CCCCCCCC(=O)NC(CCC(=O)OCC)C(=O)OCC)C(=O)OCC (centres undefined)	10	-12	3%	-3	2.1
O=C(O)CCNS(=O)(=O)c1ccc(Oc2ccccc2)cc1	1	-6	-5%	11	-0.9
CC(C)(C)c1ccc(C(=O)NCCCNC(=O)c2cccnc2)cc1	-1	.	.	.	1.1
CCOc1ccccc1N1CCN(Cc2ccc(Br)s2)CC1	5	-44	10%	-14	7.1
CC1CC(C)CN(CCCNC(=O)Cc2c(C(=O)O)[nH]c3ccccc23)C1 (centres undefined)	-3	-20	-10%	1	1.3	Arbovirus inh repeat=1
CC1CCc2nc(NC(=O)c3cc(C(C)(C)C)nn3C)sc2C1 (centres undefined)	74	.	?	.	-1.8
CCOc1ccc(CN2C(=O)c3ccccc3C2=O)cc1C(=O)O	3	.	.	.	-1.2
O=C(CCCCCCN1C(=O)c2ccccc2C1=O)NC1CCCCC1	-1	-9	-10%	6	-1.1
COc1cc(S(=O)(=O)N2CCOCC2)ccc1NC(=O)CSc1nnc(N)s1	1	-9	-4%	2	0.7
CCCCNC(=O)NS(=O)(=O)c1ccc(NS(=O)(=O)c2ccccc2)cc1	-3	-34	-9%	10	-1.5	Arbovirus inh repeat=3
CCc1c(O)nc(SCC(=O)Nc2ccccc2C)[nH]c1=O	-3	-17	-10%	1	.
CN(Cc1ccccc1)S(=O)(=O)c1ccc(N2CCOCC2)nc1	-9	.	-10%	.	-0.6
O=C(COC(=O)c1cccc(F)c1)NC1CC1	2	.	-2%	-6	-3.5
CCc1ccc(NC(=O)NCc2ccccn2)cc1	-19	.	.	.	-2.0
COc1ccc(C)cc1S(=O)(=O)N1CCC(C(=O)N2CCOCC2)CC1	-5	19	-4%	8	-1.1
CC(C)(C)n1nnnc1C(c1cccc(C(F)(F)F)c1)N1CCOCC1 (centres undefined)	1	-49	-7%	-1	-0.3
O=C(O)CCC(=O)N1N=C(c2ccco2)CC1c1ccco1 (centres undefined)	-8	.	.	.	-4.6
Cc1ccc(S(=O)(=O)NCCC(=O)N2CCN(S(=O)(=O)c3cccc(F)c3)CC2)cc1C	2	.	.	.	-0.8
COc1ccc(OC)c(C2C(C(C)=O)=C(C)Nc3ncnn32)c1 (centres undefined)	-1	.	.	.	-1.5
Cc1cc(CC(C)C)n(-c2nc3ccccc3c(=O)n2OCc2ccccc2)n1	36	-21	7%	-34	9.9
CC(C)(C)CN1CCNC(=O)C1CC(=O)NCCN1CCCc2ccccc21 (centres undefined)	-1	.	2%	2	-1.8
CCN(CC(=O)Nc1cccc(S(=O)(=O)N2CCCCC2)c1)Cc1ccccc1	-6	.	.	.	5.9
CC(C)CCNc1ncnc2c1cnn2Cc1ccccc1Cl	7	.	.	.	2.4
Cc1cc(NC(=O)c2ccccc2Oc2ccccc2)no1	12	-11	6%	-14	2.7
O=C1c2ccccc2C(Nc2ccc(S(=O)(=O)N3CCCCCC3)cc2)N1Cc1ccco1 (centres undefined)	1	-31	5%	-8	7.1
CNc1oc(C)nc1S(=O)(=O)c1ccc(C)cc1	12	-43	.	7	1.6
CCOC(=O)c1c(NC(=O)c2nn(C)cc2[N+](=O)[O-])sc(C)c1C	-8	.	-15%	7	-2.6
CN1CCN(NC(=O)/C=C/c2cccc(Cl)c2)CC1	1	.	.	.	-0.5
Cn1c(=O)cc(NCc2ccccc2)[nH]c1=O	18	-33	-7%	-11	0.1
CN(c1cc(=O)n2ccccc2n1)C1CCCCC1	-9	-37	7%	0	-0.3
O=C(Nc1ccc(-c2n[nH]c(=S)o2)cc1)c1ccccc1Cl	1	.	.	.	0.3
CCn1cc(/C=C/C(=O)Nc2ccn(Cc3c(F)c(F)cc(F)c3F)n2)cn1	2	5	12%	-30	-1.4
COc1ccccc1OCCC(=O)OCC(=O)NCc1ccccc1	0	-1	-7%	1	0.9
COCCCNC(=O)c1ccc(CS(=O)(=O)c2ccccc2C)o1	2	.	.	.	-0.2
COCCN1Cc2cccc(C(=O)NCc3ccc4c(c3)OCO4)c2C1=O	13	-18	1%	2	-1.2
CC1CC2(O)c3no[n+]([O-])c3CCC2N1O (centres undefined)	-3	2	-3%	7	-6.5
N#Cc1sc(C(N)=O)c(-c2ccccc2)c1-c1ccccc1	-9	.	-15%	.	-2.2
COc1ccc2cc3c(nc2c1)OCC3	0	.	.	.	2.3
Additional entries follow.
SMILES	Mtb bLac sens	YopH PTP inh	Mtb growth	Arbovirus inh	RecA splice inh	others
COc1ccc2c(c1)C(c1ccc(Cl)cc1)NC(=O)C2 (centres undefined)	-11	.	.	.	2.5
Cn1cccc1-c1nc2ccc(NC(=O)c3ccco3)cc2[nH]1	-12	-5	-14%	-12	-5.3
COCCNC(=O)[C@H]1C[C@@H]1[C@H](NP(=O)(c1ccccc1)c1ccccc1)c1ccccc1	-9	-18	-3%	-4	.
CSc1ccc(CCNC(=O)CN2C(=O)c3cccnc3Oc3ccc(C)cc32)cc1	7	.	.	.	-1.5
Oc1c(C=Nc2ccc(Cl)cn2)sc2ccccc12	-5	.	-11%	.	-1.3
CCNc1nc(NCC)nc(C(=O)OCCO)n1	-5	-47	6%	0	4.9
Nc1nc2ccccc2n1Cc1ccc(Cl)c(Cl)c1	48	.	.	.	7.1
O=C(O)/C=C/C(=O)NCc1ccccn1	2	.	-11%	-1	-3.0
Cc1nc(NCc2ccco2)nc2c1C(=O)CC(C)C2 (centres undefined)	-2	-32	5%	-6	5.3
Cc1cc([N+](=O)[O-])nn1CCCC(=O)Nc1ccc2c(c1)OCO2	-12	.	.	.	1.0
CC(=O)c1c(C)[nH]c(C(=O)OCC(=O)N2c3ccccc3NC(=O)C2(C)C)c1C	-6	-5	1%	-4	-3.5
Cc1noc(C)c1C(=O)N1CCN(S(=O)(=O)c2cccs2)CC1	-15	.	.	.	-2.7

Arranged by molar mass (rising): part of the list above.
SMILES	Mtb bLac sens	YopH PTP inh	Mtb growth	Arbovirus inh	RecA splice inh	others
Cc1nc(NCc2ccco2)nc2c1C(=O)CC(C)C2 (centres undefined)	-2	-32	5%	-6	5.3
Oc1c(C=Nc2ccc(Cl)cn2)sc2ccccc12	-5	.	-11%	.	-1.3
CSc1ccc(CCNC(=O)CN2C(=O)c3cccnc3Oc3ccc(C)cc32)cc1	7	.	.	.	-1.5

Later entries
SMILES	Mtb bLac sens	YopH PTP inh	Mtb growth	Arbovirus inh	RecA splice inh	others
COc1cc(C(=O)OCc2nc3ccsc3c(=O)[nH]2)c([N+](=O)[O-])cc1OC	-4	.	.	.	-0.3
CCOC(=O)NC(=O)/C(C=Nc1ccc(Cl)cc1)=C(\C)O	3	.	-2%	-1	-1.5
COc1ccc2oc(C(=O)c3ccccc3)c(N)c2c1	81	8	9%	9	-4.3
CCN(CC)S(=O)(=O)c1ccc(OC)c(NC(=O)c2cc(=O)[nH]c3ccccc23)c1	-5	.	-3%	-5	.
CCOC(=O)NC(=O)c1cn(N(C)c2ncc(C(F)(F)F)cc2Cl)c(=O)[nH]c1=O	3	.	5%	10	-3.5
COc1cc2cc(C)c3nnc(SCC(=O)Nc4cc(C)on4)n3c2cc1OC	2	.	5%	6	1.7
COc1cccc(C(=O)CC(C(=O)O)c2ccc(F)cc2)c1 (centres undefined)	-7	.	.	16	-2.5
CC(=O)N=C1SC2CS(=O)(=O)CC2N1Cc1ccc(C)cc1 (centres undefined)	-4	.	-11%	.	-0.6
O=C(NNC(=S)Nc1ccccc1)c1ccncc1	16	-36	.	-1	-3.2
CCOC(=O)c1c(C)nn(-c2ccc(NC(=O)c3c(C)noc3C)cc2)c1C	0	.	.	.	-4.2
Cc1noc(/C=C/c2cccs2)c1S(=O)(=O)N1CCC(C(=O)NCCCN2CCC(C)CC2)CC1	84	.	2%	-14	6.5
Nc1c(S(=O)(=O)c2ccccc2)c2nc3ccccc3nc2n1CCN1CCOCC1	-10	-15	3%	7	-14
O=C(COC(=O)Cc1ccccc1F)Nc1cc(S(=O)(=O)N2CCOCC2)ccc1N1CCCC1	-11	-11	-1%	2	0.5
CCCn1c(=O)n(C)c(=O)c2c(SCC(=O)NCC(c3ccccc3)N(C)C)nc(CC(C)C)nc21 (centres undefined)	-9	.	.	.	0.1
CN(C)/C=C/c1oc2ccc(O)cc2c1[N+](=O)[O-]	-1	.	2%	20	2.9
COc1cccc(O)c1CN1CCC(C(=O)Nc2ccc(Oc3cccnc3)cc2)CC1	4	.	.	.	-1.4
CCN1CCN(S(=O)(=O)c2ccc(Cl)c(C(=O)Nc3ccc(C(=O)N(CC)CC)cc3)c2)CC1	-8	.	.	.	7.3
Cc1cc(NC(=O)CSc2nnc(-c3ccncc3)n2-c2ccc(F)cc2)no1	-8	.	0%	1	-2.9
Cc1ccccc1NC(=O)c1ccc2nc(N3CCOCC3)sc2c1	-5	.	.	.	3.1
O=C(Nc1ccc(Cl)cc1F)C1CCN(S(=O)(=O)c2cccnc2)CC1	-2	4	-7%	2	0.8
COCCNC(=O)c1nn2cccnc2c1Cl	-14	-22	0%	-3	-0.6
CCOc1ccc(NC(=O)CN2CCN(CC(=O)Nc3ccccc3OC)CC2)cc1	2	.	.	.	0.7
COCCNC(=O)c1ccc2c(c1)ncn2-c1cccc(C)c1	4	.	.	.	0.0
CCOc1ccc(S(=O)(=O)/N=C(/c2ccccc2)N(C)C)cc1	-2	.	-22%	1	-0.8

This is a subset. The share of hits here may be higher or lower than overall.
